From PubChem BioAssay
Biofilm kill mix: clotrimazole potentiators killing C. albicans biofilm, primary screen, 4-compound mixtures; 0.02% of 120,000 active; C. albicans biofilm persisters + clotrimazole, fluorescence viability; primary screen in compound mixtures of four per well; inhibition, % at 7.6 µM;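 active means inhibition above 30.3% in the primary screen of four-compound pools, then above 30% when the compound was retested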;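 further: compounds exposed to preformed 24 h biofilms for 48 h; the number belongs to the whole pool; some results filed as inactive read as strong as hits; inactives centre near 12; 0% = biofilm with clotrimazole alone and 100% = kill control; retested singly at about 60 µM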
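Test system: C. albicans biofilms. Buffer or medium: RPMI/MOPS medium, pH 7.0. Timing: 48 h compound exposure at 37 °C. Technique: Alamar Blue fluorescence. Evaluation: percent inhibition of biofilm viability.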
* hit, by the source's call.

SMILES	Biofilm kill mix
CCn1c(CNC(=O)C23CC4CC(CC(C4)C2)C3)nnc1SC	14
C[C@@H](C(=O)N[C@H](C(=O)O)c1ccccc1)n1nnc2ccccc2c1=O	14
CC(=O)Nc1ccc2c3c(cccc13)C(=O)N(c1ccccc1)C2=O	9
CC(=O)n1cc([C@H]2C=C(C(=O)Nc3ccccc3)O[C@@H](OCc3ccc(CO)cc3)C2)c2ccccc21	20
O=C(CCC1CCCCC1)Nc1nccs1	18
COc1ccc(S(=O)(=O)N2CCCCCC2)cc1NC(=O)c1c2c(nc3ccccc13)CCN(Cc1ccccc1)C2	2
O=C(CCCc1ccccc1)Nc1cccc(C(=O)O)c1	5
COC(=O)CNC(=O)COC(=O)c1cc(SC)ccc1Cl	18
CCNc1ccc(C(=O)OCC(=O)NCc2ccccc2Cl)cc1[N+](=O)[O-]	8
Cn1c(=O)c2c(ncn2Cc2ccc(Cl)cc2)n(C)c1=O	10
Cc1nc2ccccc2nc(C)c1=NOCC(=O)N(c1ccccc1)C(C)C	11
O=C1NCCCC1C(=O)N/N=C/c1cccc(O)c1 (stereo not drawn)	11
Cc1ccn2cc(C(=O)NCc3ccco3)nc2c1	12
COc1ccc(NC(=O)CN(C)C(=O)c2oc3ccccc3c2C)cc1	3
CSc1nc2sc3c(c2c2nncn12)CCC3	13
O=C(O)c1cc(-n2nnnc2SCc2ccccc2F)ccc1Cl	10
NC(=O)Cc1ccc(Nc2nnc(-c3ccccc3)c3ccccc23)cc1	15
CCS(=O)(=O)c1ccc2c(c1)N(S(=O)(=O)c1ccc(Cl)cc1)CC(C(=O)O)O2 (stereo not drawn)	9
O=C(O/N=C1\CCS(=O)(=O)c2sccc21)c1c(F)cccc1F	9
CC1CN(CCCCOc2cccc(Oc3ccccc3)c2)CC(C)O1 (stereo not drawn)	-10
CCn1nc(C)c(C2C(C#N)=C(N)OC3=C2C(=O)CCC3)c1C (stereo not drawn)	10
NNC(=O)C1=NOC2COC3(CCN(c4ncccn4)CC3)OCC12 (stereo not drawn)	17
CCOC(=O)c1ccccc1NC(=O)/C=C/C(=O)O	8
Cc1ccc(-n2ncc3c(=O)n(CC(=O)NC4CCCCC4)cnc32)cc1C	3
CC(=O)c1c(O)cc2n(c1=O)-c1ccc(Cl)cc1C2(C)C	8

A different layout for part of the listing above.
structure | Biofilm kill mix
CCn1c(CNC(=O)C23CC4CC(CC(C4)C2)C3)nnc1SC | 14
C[C@@H](C(=O)N[C@H](C(=O)O)c1ccccc1)n1nnc2ccccc2c1=O | 14
CC(=O)Nc1ccc2c3c(cccc13)C(=O)N(c1ccccc1)C2=O | 9
CC(=O)n1cc([C@H]2C=C(C(=O)Nc3ccccc3)O[C@@H](OCc3ccc(CO)cc3)C2)c2ccccc21 | 20
O=C(CCC1CCCCC1)Nc1nccs1 | 18
COc1ccc(S(=O)(=O)N2CCCCCC2)cc1NC(=O)c1c2c(nc3ccccc13)CCN(Cc1ccccc1)C2 | 2
O=C(CCCc1ccccc1)Nc1cccc(C(=O)O)c1 | 5
COC(=O)CNC(=O)COC(=O)c1cc(SC)ccc1Cl | 18
CCNc1ccc(C(=O)OCC(=O)NCc2ccccc2Cl)cc1[N+](=O)[O-] | 8
Cn1c(=O)c2c(ncn2Cc2ccc(Cl)cc2)n(C)c1=O | 10
Cc1nc2ccccc2nc(C)c1=NOCC(=O)N(c1ccccc1)C(C)C | 11
O=C1NCCCC1C(=O)N/N=C/c1cccc(O)c1 (stereo not drawn) | 11
Cc1ccn2cc(C(=O)NCc3ccco3)nc2c1 | 12
COc1ccc(NC(=O)CN(C)C(=O)c2oc3ccccc3c2C)cc1 | 3
CSc1nc2sc3c(c2c2nncn12)CCC3 | 13
O=C(O)c1cc(-n2nnnc2SCc2ccccc2F)ccc1Cl | 10
NC(=O)Cc1ccc(Nc2nnc(-c3ccccc3)c3ccccc23)cc1 | 15
CCS(=O)(=O)c1ccc2c(c1)N(S(=O)(=O)c1ccc(Cl)cc1)CC(C(=O)O)O2 (stereo not drawn) | 9
O=C(O/N=C1\CCS(=O)(=O)c2sccc21)c1c(F)cccc1F | 9
CC1CN(CCCCOc2cccc(Oc3ccccc3)c2)CC(C)O1 (stereo not drawn) | -10

(cont.)
SMILES	Biofilm kill mix
c1ccc(Cn2nnc(-c3ccccc3)n2)cc1	15
O=C(CCC(=O)N1CCN(c2ccc(O)cc2)CC1)c1ccc(Br)cc1	8
COCCCN1CN=C(Nc2nc3ccccc3o2)NC1	15
CCOc1ccc(CCNc2ccc3nnc(-c4ccccc4)n3n2)cc1OCC	17
CCCC12CN3CC(C)(CN(C1)C3c1cccs1)C2=O (stereo not drawn)	20
CC(Cl)C(=O)NN=C(c1ccccc1)c1ccccc1 (stereo not drawn)	11
O=C(Cc1ccccc1)Nc1ccc(N2CCOCC2)cc1	0
CCOCCCNC(=O)/C(C#N)=C/c1cc(C)c(O)c(C)c1	11
O=C(Nn1c(-c2ccncc2)nc2ccccc2c1=O)c1ccc(Br)cc1	7
COc1ccc(NC(=S)NNc2ccc(S(=O)(=O)Nc3ccccc3C(=O)O)cc2[N+](=O)[O-])cc1	3
Cc1cccc2cc(CN(Cc3cccnc3)C(=S)NCCCN(C)C)c(=O)[nH]c12	-1
COc1cccc2c1NC(C(=O)O)C1CC=CC21 (stereo not drawn)	13
O=S1(=O)CC(O)C(N2CCCCC2)C1 (stereo not drawn)	12
COc1ccccc1C(c1nnnn1Cc1ccccc1)N1CCC(C(N)=O)CC1 (stereo not drawn)	16
Cc1ccc(Nc2ccccc2N)cc1	6
COc1ccc(N2CCN(CC(=O)Nc3ccc(SC(F)F)cc3)CC2)cc1	18
CCCCOc1ccc(-c2nnc(N)s2)cc1	13
CCCCNC(=O)N(O)C1N(CCCC)C(=O)N(CC(=O)OC)C1(C)C (stereo not drawn)	3
CN(C)/C=C/C(=O)c1ccc(Cl)s1	7
CC(C)OCCCNC(=O)C(NC(=O)c1ccc(Cl)cc1)C(C)C (stereo not drawn)	10
Cc1cccc(Nc2nc(-c3ccccc3)c(C(=O)Nc3cccnc3)s2)c1	17
CC1=NN(c2ccccc2)C(=O)C1C=Nc1ccccc1O (stereo not drawn)	17
O=C(NCCc1ccc2c(c1)OCCO2)c1cccc(F)c1	12
O=C(COC(=O)c1c2c(nc3ccccc13)CCCC2)c1ccc(Br)s1	18
CCOC(=O)c1cc2c(C)n(-c3ccc(OCC)cc3)c(C)c2cc(C(=O)OCC)c1=O	12
Further structures follow:
SMILES	Biofilm kill mix
COc1ccc(N/C=C2\C(=O)c3c(sc(C)c3C)N(C)S2(=O)=O)cc1	3
CCc1nnc(SCC(=O)Nc2ccccc2Cl)nc1CC	5
COc1cccc(/C=N/Nc2ncnc3scc(-c4ccccc4)c23)c1O	9
Nc1ccc(S(=O)(=O)C(F)(F)F)cc1N	-2
CCCN1CCC(=O)N([C@H](CSc2ccc(OC)cc2)c2ccccc2)CC1	16
CCN(CC)c1ccc(NC(=O)CCS(=O)(=O)c2cccc3nsnc23)c(C)c1	22
CC(=O)c1sc(N/N=C/c2cccc(O)c2)nc1C	11
Cc1ccc(-c2csc3nc(SCC(N)=O)n(Cc4ccccc4)c(=O)c23)cc1	5
Cc1cc(C(F)(F)F)c(C#N)c(SCC(=O)Nc2nc3ccccc3s2)n1	4
COc1cccc(C(=O)NCC(=O)OCC(=O)C(C)(C)C)c1	16
CCNC(=S)N(CCc1ccc(S(N)(=O)=O)cc1)C1CC(=O)N(c2ccccc2)C1=O (stereo not drawn)	28
CS(=O)(=O)Nc1ccc(C(=O)Nc2ccccc2Sc2ccccc2)cc1	12
CCOc1ccc(CN2CCN(Cc3ccc(C)o3)CC2CCO)cc1 (stereo not drawn)	-7
CCOc1ccc(S(=O)(=O)NCc2ccc(OC)cc2)c2cccnc12	5
COc1ccc(S(=O)(=O)Nc2ccccc2C(N)=O)cc1OC	9
CCc1ccc(OCCCC(=O)Nc2cccc(C(=O)O)c2)cc1	23
C/C(=N\NC(=O)C1COc2ccccc2O1)c1ccc(N2CCOCC2)cc1 (stereo not drawn)	-10
COc1ccc(/C=C/C(=O)N/C(=C\c2ccco2)C(=O)NCCc2nc3ccccc3[nH]2)cc1	8
CCC(=O)Nc1ccc(C(=O)N/N=C/c2c(C)[nH]c3ccccc23)cc1	7
O=C(CN1C(=O)COc2ccc(S(=O)(=O)N3CCCC3)cc21)NC1CC1	2
c1ccc(Cc2noc(CN3CCN(C4CCc5ccccc5C4)CC3)n2)cc1 (stereo not drawn)	15
CCOC(=O)c1ccc(NC(=S)NCc2cccnc2)cc1	13
O=C(NCc1ccc(Cl)cc1)C(=O)N/N=C/c1ccc(Br)cc1	16
Cc1cccc(C)c1N1CCN(S(=O)(=O)N2CCCCC2)CC1	12
COc1ccc(C(=O)N/N=C(\C)CC(=O)Nc2ccc(Cl)cn2)cc1	15
Other records
SMILES	Biofilm kill mix
C#CC(CC)(CC)NC(=O)NC1CCCCC1	10
Cc1ccc(-n2cnc3sc(C)c(C)c3c2=O)cc1	8
O=C(CN1CCCC1)N1CCCC(c2ccc(F)cc2)c2ccc(F)cc21 (stereo not drawn)	17
COc1ccc(NC(=O)c2cn(CCC#N)nc2-c2cc3ccccc3o2)cc1	7
COc1ccc(CN2CCN(Cc3cccn3-c3ncccn3)CC2CCO)c(C)c1C (stereo not drawn)	20
CC(=O)c1cccc(-n2nnnc2SCC(=O)NNC(=O)C(C)C)c1	17
O=C(c1cc(Br)ccc1Cl)N1CCCC1	17
Cc1cc(Oc2ccc(Br)cc2)nc(SCC(=O)c2ccccc2)n1	15
CC1CC(C)CN(C(=O)Nc2ccc(Br)cc2)C1 (stereo not drawn)	-14
COCCn1c(-c2ccc(F)cc2)nc2oc3cc(OC)ccc3c(=O)c2c1=O	12
O=C(NC(Cc1c[nH]c2ccccc12)C(=O)NCc1ccc(F)cc1)OCc1ccccc1 (stereo not drawn)	10
CCCCC(CC)CNC(=O)C(Cc1ccccc1)NS(=O)(=O)c1ccc2c(c1)CCC(=O)N2 (stereo not drawn)	9
Cc1cc(C)n2nc(SCC(=O)N(CC(C)C)c3c(N)n(CC(C)C)c(=O)[nH]c3=O)nc2n1	11
O=C(Nc1ccc(S(=O)(=O)NCc2ccccc2)cc1)c1ccccc1[N+](=O)[O-]	10
O=C(c1ccco1)N(Cc1cccc([N+](=O)[O-])c1)c1ccc(Br)cc1	11
Cc1ccccc1N1C(=O)c2ccccc2NC1c1ccncc1 (stereo not drawn)	8
CC(C)c1ccc2c(c1)[C@H]1OCC[C@H]1[C@@H](c1cccs1)N2	4
COc1cc(CCC(=O)OCC(=O)NC(=O)c2ccc(Cl)cc2)cc(OC)c1OC	5
Cc1ccc(S(=O)(=O)Nc2ccc(O)c(Sc3ncn[nH]3)c2)cc1	-2
O=Nc1ccc(O)c2ncccc12	9
CN(C(=O)CCN1C(=O)C2C3C=CC(C3)C2C1=O)c1ccccc1 (stereo not drawn)	17
CCn1c(CNC(=O)c2ccco2)nnc1SCC(=O)Nc1ccc(Br)cc1F	6
O=C(c1cc2ccccc2o1)N1CCN(S(=O)(=O)/C=C/c2ccccc2)CC1	3
Nc1nonc1C(=O)NCCNc1ncccc1[N+](=O)[O-]	5
CCN1CCCC1CNC(=S)Nc1ccc(C(C)=O)cc1 (stereo not drawn)	11
(further entries)
SMILES	Biofilm kill mix
CC(C)=CCN1CCN(Cc2cc(F)ccc2-n2nc(C)cc2C)CC1CCO (stereo not drawn)	5
COc1ccc(C2=NN(c3nc(-c4ccccc4)c(CC(=O)O)s3)C(c3ccco3)C2)cc1 (stereo not drawn)	14
CSc1ncccc1C(=O)Nc1ccc(S(=O)(=O)Nc2nccs2)cc1	18
CCC(C)[C@H](NC(=O)Nc1ccc(S(N)(=O)=O)cc1)C(=O)OC (stereo partly drawn)	27
COc1cc(-n2c(C)nc3cc(C(=O)O)ccc32)cc(OC)c1OC	18
N#C/C(=N\O)c1nc2ccccc2s1	19
C(=N\N1CCOCC1)/c1cn(-c2ccccc2)nc1-c1ccccc1	3
O=C(CN1CCC(NC(=O)c2ccccc2Cl)CC1)NCc1ccco1	13
O=C(c1cccnc1)N1c2ccccc2Sc2ccccc21	18
COC(=O)NNC(=O)c1ccccc1OC	11
Cc1ccsc1/C=N/NC(=O)c1ccncc1	14
COc1ccccc1NC(=O)c1c(N=Cc2ccccc2O)cnn1C	-5
COc1ccc(C(=O)SC2=NCCS2)cc1	15
CC(=O)Nc1ccc(S(=O)(=O)N2CCN=C2SCc2cccnc2)cc1	13
Cc1ccccc1NC(=O)c1c(C)[nH]c(=S)c(C#N)c1-c1ccco1	18
CC(=O)c1cccc(NC(=O)CN(C)Cc2ccc(OC(F)F)cc2)c1	16
Cc1ccc(C(=O)N/C(=C\c2sccc2C)C(=O)NCc2ccncc2)cc1	0
CCOC(=O)c1sc(NC(=O)c2ccc(S(=O)(=O)N3CCCCC3)cc2)nc1-c1ccccc1	15
CCC(=O)OCCNc1nc(-c2ccccc2)nc2ccccc12	7
CCCC(=O)Nc1ccc(C(=O)NCc2ccccn2)cc1	12
COc1cc(/C=N/N(C)C)ccc1OC(=O)c1cccs1	0
O=C(N/N=C\c1cccc(Cl)c1)c1ccc(Cn2cccn2)o1	13
CC(Nn1cnnc1)c1cc(Cl)ccc1O (stereo not drawn)	-4
CC(=O)O/N=C/c1c(NCc2ccccc2)nc2c(C)cccn2c1=O	19
O=c1c2ccccc2nc2c3ccccc3c(NCc3cccnc3)nn12	7
Cc1nc2ccccc2cc1C(=O)N/N=C/c1ccco1	6
COc1ccc2[nH]c(C)c(CCNC(=S)Nc3ccc(F)cc3)c2c1	14
COCCNc1cc(NCCOC)c([N+](=O)[O-])cc1[N+](=O)[O-]	12
O=C(Nc1cccc(-c2nc3cccnc3s2)c1)c1cccnc1Cl	14

Some of the compounds tested; the hit share may differ from the screen's.
